# Screens from PubChem.
# StopGo reporter = High Throughput Screening for Foot and Mouth Disease Virus Antivirals; human cells with a luciferase reporter of 2A StopGo recoding; control for the full effect not named in the record; Potency, µM (titrated, usually from 57.9 µM), without a hit: at the highest dose signal change, negative = less light; hit rate 1.2% among 410,000; AID 1159524, 2015; active = well fitted falling curve with a large enough effect; inconclusive = small, poorly fitted or top-dose-only effect; inactive = no such curve, though single readings can be large or run the other way; tested in HEK293T cells; note: % is set by controls: 0 for no effect and ±100 for the full control effect; nearly all actives have a fitted effect of over 45% in size; luciferase light after 4 h
# MARV entry inh = qHTS for inhibitors of binding or entry into cells for Marburg Virus. Potency, µM (series often up to 37.8 µM), without a hit: at the highest dose activity change, negative = inhibition, actives largely listed as inhibitors. Marburg virus pseudotyped entry inhibition, cell reporter; control for the full effect not named in the record; about a third of the inactives were read at about 46 µM. hit rate 1.8% among 300,000. AID 540276, 2011; active = well fitted inhibition curve with a large enough effect; inconclusive = small, poorly fitted or top-dose-only effect, or effect the other way; inactive = flat fitted curve, though single readings scatter; tested in HEK293 cells; about a fifth of its hits are not listed in these tables; note: % is set by controls: 0 for no effect and ±100 for the full control effect; luciferase read-out
# Cruzain Triton = qHTS Assay for Promiscuous and Specific Inhibitors of Cruzain (with detergent); Potency, µM, for the others: max response, negative = inhibition, actives largely listed as inhibitors; purified cruzain, Z-FR-AMC fluorescence, 0.01% Triton; Cruzipain (Trypanosoma cruzi), P25779; hit rate 0.43% among 200,000; AID 1478, 2009; active = well fitted curve in the direction sought with a large enough effect; inconclusive = small, poorly fitted or top-dose-only effect, or another doubt; inactive = no such curve, though single readings can be large; an effect the other way counts as inactive or inconclusive;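 note: plate controls were neutral wells for no effect and buffer without enzyme for full effect; nearly all actives have a fitted effect of over 40% in size; top concentration of the series not given in the record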
# Target sequence (P25779 123-467 limits assumed): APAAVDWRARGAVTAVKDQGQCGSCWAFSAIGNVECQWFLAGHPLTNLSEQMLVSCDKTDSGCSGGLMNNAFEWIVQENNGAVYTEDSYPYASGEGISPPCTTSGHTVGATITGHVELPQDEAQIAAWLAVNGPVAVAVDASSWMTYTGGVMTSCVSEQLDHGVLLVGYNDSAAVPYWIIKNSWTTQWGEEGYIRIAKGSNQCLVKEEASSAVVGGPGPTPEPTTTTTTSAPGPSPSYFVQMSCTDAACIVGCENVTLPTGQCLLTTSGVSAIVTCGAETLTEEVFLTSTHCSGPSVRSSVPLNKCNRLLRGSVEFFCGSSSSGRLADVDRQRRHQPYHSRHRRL
#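 Sodium acetate buffer (100 mM, pH 5.5) containing 5 mM DTT and 0.01% Triton X-100 hosted 1.5 nM cruzain and test compound for 15 min at room temperature. Cleavage of 2 uM Z-FR-AMC was then tracked by fluorescence.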
# SARS PLP yeast = qHTS of Yeast-based Assay for SARS-CoV PLP; S. cerevisiae expressing SARS-CoV PLpro, growth rescue; control for the full effect not named in the record; Potency, µM (top dose mostly 32.9 µM), for the others: top-dose activity, positive = growth rescue; hit rate 0.19% among 330,000; note: 0% is about no effect; nearly all actives have a fitted effect of over 55% in size; growth read by luminescence after 48 h
# NS1 inh = qHTS Assay for Inhibitors of Influenza NS1 Protein Function; S. cerevisiae slowed by influenza A NS1, growth recovery by OD600; hit rate 0.4% among 270,000; AID 2326, 2010; Potency, µM (top dose mostly 46.1 µM), for the others: at the top dose activity, positive = more growth; note: actives are rising curves; nearly all actives have a fitted effect of over 50% in size
#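 Recovery from NS1-induced slow growth read by OD600 in budding yeast switched to galactose assay medium (pH 6.0, -URA) at 1:100 dilution. Compound 23 nl per well; the matching strain lacking NS1 serves as control.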
# Cruzain noTriton = qHTS Assay for Promiscuous and Specific Inhibitors of Cruzain (without detergent); Cruzipain (Trypanosoma cruzi), P25779; purified cruzain, Z-FR-AMC fluorescence, no detergent; Potency, µM, for inactives: max response, negative = inhibition, most hits filed as inhibitors; hit rate 2.3% among 200,000; active = well fitted curve in the direction sought with a large enough effect; inconclusive = small, poorly fitted or top-dose-only effect, or another doubt; inactive = no such curve, though single readings can be large; an effect the other way counts as inactive or inconclusive;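 note: plate controls were enzyme without inhibitor for no effect and buffer without enzyme for full effect; nearly all actives have a fitted effect of over 40% in size; top concentration of the series not given in the record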
#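 Purified cruzain at 1.5 nM, pre-incubated 15 min with compound at room temperature in 100 mM sodium acetate pH 5.5, 5 mM DTT, 0.00005% Triton X-100. Reaction started with 2 uM Z-FR-AMC; AMC fluorescence increase over 60 s gives rate.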
# RE007 growth inh = qHTS Assay for Inhibitors of the HIV-1 protein Vpr | S. pombe RE007 Vpr strain, BacTiter-Glo ATP luminescence, 24 h; control for the full effect not named in the record | Potency, µM (doses to about 92.2 µM), for inactives: at the highest dose activity change, negative = less growth | hit rate 0.21% among 360,000; active = well fitted falling curve with a large enough effect; inconclusive = small, poorly fitted or top-dose-only effect; inactive = no such curve, though single readings can be large or run the other way;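 note: % is set by controls: 0 for no effect and ±100 for the full control effect; nearly all actives have a fitted effect of over 50% in size; the assay follows cell death caused by Vpr and the record does not say whether a fall means rescue or toxicity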
#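 Fission yeast strain RE007, carrying one chromosomally integrated HIV-1 vpr copy, was seeded at OD 0.01 in PMG+AL medium with 23 nL pinned compound. After 24 h at 30 °C and 99% humidity, viability was read by BacTiter-Glo luminescence.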
# Lassa entry inh = qHTS for Inhibitors of binding or entry into cells for Lassa Virus | Lassa virus pseudotype entry inhibition, cell reporter; control for the full effect not named in the record | Potency, µM (series often up to 37.9 µM), inactives show top-dose activity change, negative = inhibition, most hits filed as inhibitors | hit rate 1.2% among 300,000 | AID 540256, 2011; active means well fitted inhibition curve with a large enough effect; inconclusive means small, poorly fitted or top-dose-only effect, or effect the other way; inactive means flat fitted curve, though single readings scatter; tested in HEK293 cells; note: % is set by controls: 0 for no effect and ±100 for the full control effect; nearly all actives have a fitted effect of over 50% in size; luciferase read-out
# * hit, by the source's call; ? = inconclusive; / = not tested or not shown; & = joins results of further samples; [ ] = dose if it differs, or a comment. Unless noted, calls come from the whole dose curve; as a rule, active means well fitted rising curve with a large enough effect; inconclusive means small, poorly fitted or top-dose-only effect; inactive means no such curve, though single readings can be large or run the other way. Potency is the fitted concentration of half-maximal effect. Random draw from the library. About 4.7% of those tested had a hit in this group.
SMILES,StopGo reporter,MARV entry inh,Cruzain Triton,SARS PLP yeast,NS1 inh,Cruzain noTriton,RE007 growth inh,Lassa entry inh
C[C@H](NC(=O)[C@@H]1CSC2c3ccccc3C(=O)N21)C(=O)NCCc1ccc(F)cc1 (stereo not given in full),-7%,-1%[46.1 µM],/,4%,?,/,-6%,?
CCOc1ccc(NC(=O)CN(C)C(=O)CC2CC3CCC2C3)cc1OCC (stereo not given),0%,-23%,/,-12%,-3%,/,-13%,6%
O=C(Nc1ccc2c(c1)OCCO2)C1CCCN(S(=O)(=O)c2cccc3nsnc23)C1 (stereo not given),/,-4%,1.8%,1%,?,?,-9%,-30%
O=C(N/N=C/c1cccs1)[C@H]1C[C@@H]1c1ccccc1,-1%,19%,-0.4%,13%,19%,-5%,3%,-14%
CCCCN1C(=O)c2ccc(C(=O)Nc3ccc(C)c(S(=O)(=O)N(C)C)c3)cc2C1=O,18µM*,?,-8.1%,10%,8%,12%,13%,-28%
CCOC(=O)C1CCN(C(=O)COc2ccc(S(=O)(=O)N3CCOCC3)cc2C)CC1,-21%,11%[46.1 µM],/,-1%,5%,/,-1%,20%
Cc1cc(C)nc(NN=C(c2ccccc2)c2ccccc2)n1,-14%,10µM*,-3.7%,-23%,-34%,10%,-16%,?
N#C/C(=C\c1c(F)cccc1Cl)S(=O)(=O)c1ccccn1,-23%,-4%,/,0%,3%,/,3%,2%
COc1ccc(C)cc1NC(=O)CCCN1C(=O)C(c2ccccc2)Oc2cccnc21 (stereo not given),0%,/,/,-2%,-28%,/,11%,/
COc1ccc(S(=O)(=O)N2CCOCC2)cc1NC(=O)c1ccccc1C,26%,3%[46.1 µM],/,-3%,6%,/,-3%,-14%[46.1 µM]
O=S(=O)(c1ccc(Br)s1)N1CCC2(CC1)OCCO2,-15%,0%,/,-1%,-2%,/,0%,-2%
CCOC(=O)C1=C(CS(=O)(=O)c2ccc(C)cc2)NC(=O)NC1c1ccc(O)c(OC)c1 (stereo not given),-4%,/,/,0%,-1%,/,12%,/
CC(=O)N1c2cc3ccccc3cc2N(C(C)=O)c2cc3ccccc3cc21,-28%,?,/,/,/,/,12%,-21%[46.1 µM]
O=C(Nc1nc2ccccc2s1)c1ccc([N+](=O)[O-])o1,18%,/,/,-1%,0%,/,-15%,/
CC(=O)c1c(C)n(-c2ccccc2)c2ccc(OCC(O)CN3CCOCC3)cc12 (stereo not given),/,?,-1.4%,4%,1%,-2%,1%,?
Cc1cccc(OCC(=O)Nc2ccc3c(c2)nc(CN2CCCCC2)n3C)c1,13µM*,?,-8.4%,0%,-13%,-13%,3%,?
O=C(Nc1ccccc1Cl)C1CCCN(S(=O)(=O)c2ccc(F)cc2)C1 (stereo not given),-17%,-16%,-4.5%,-1%,-1%,-8%,24%,2%
CCN(CC)CCNC(=S)Nc1ccc2nc(N3CCOCC3)cc(C)c2c1,-8%,/,/,0%,3%,/,-10%,/
Cc1cc2cc(CN3C(=O)c4ccccc4C3=O)ccc2[nH]1,7%,?,-4.1%,29%,?,-21%,14%,-1%
CCOc1ccccc1C(=O)NCC(=O)NCCc1ccc(S(N)(=O)=O)cc1,-2%,21%[46.1 µM],/,3%,-10%,/,-29%,-11%
CN1CCN(C2=NCCO2)CC1,-7%,9%[46.1 µM],/,-1%,1%,/,3%,4%
CC(NC(=O)CCc1nnc(-c2ccc(-c3ccccc3)cc2)o1)c1nccs1 (stereo not given),-8%,?,/,-2%,-5%,/,10%,?
CCc1ccccc1-n1c2c(cc(-c3nc(-c4ccc(Cl)cc4)cs3)c1=O)C(=O)CC(C)(C)C2,4%,-15%[46.1 µM],-0.7%,/,/,-7%,/,13%[46.1 µM]
COC(=O)c1ccccc1NC(=O)NN1CCN(C)CC1,-12%,/,/,1%,28%,/,6%,/
O=C(CSc1cccc[n+]1[O-])Nc1cc(Cl)ccc1[N+](=O)[O-],-19%,30%,/,5%,/,/,-10%,21%
CCOC(=O)c1ccccc1NC(=O)c1cc(S(=O)(=O)N2CCOCC2)ccc1F,?,?,-4.1%,-6%,-2%,?,4%,?
Cc1cc(NC(=O)CCC(=O)N(c2ccc(F)cc2)C(C(=O)NC2CCCC2)c2ccccc2)no1 (stereo not given),-3%,?,/,-1%,15%,/,-7%,-5%
CCOC(=O)c1[nH]c(C)c(CCC(=O)NCc2cccc(C)c2)c1C,-12%,/,4.1%,/,/,-4%,/,19%[46.1 µM]
COC(=O)c1cc(NC(=O)CCc2c(C)nc3ncnn3c2C)cc(C(=O)OC)c1,13%,10%,-0.5%,1%,-5%,5%,5%,3%
Cc1ccc(CNC(=O)C2CCCN(c3nc4ccsc4c(=O)s3)C2)cc1 (stereo not given),-22%,?,/,0%,0%,/,-9%,19%[46.1 µM]
CC(C)CCNC(=O)C1CC(=O)N(CCc2ccccc2)C1 (stereo not given),4%,6%[46.1 µM],/,-1%,4%,/,1%,11%[46.1 µM]
CN1CCC(N(C)S(=O)(=O)c2ccc(NC(=O)COc3ccc(Br)cc3Cl)cc2)CC1,-4%,8.9µM*,/,4%,/,/,3%,6.3µM*
Cc1nc(N)sc1C(=O)N/N=C/c1c[nH]c2ccccc12,/,2.9µM*,-6.8%,-2%,11%,2%,-3%,10%
O=C(COC(=O)c1cc(-c2ccccc2)nc2ccccc12)NCC1CCCO1 (stereo not given),-6%,-5%,/,-2%,-6%,/,-1%,?
C/C=C(/C)C(=O)Nc1cccc(C2=NOC3(C2)C[C@H](C(N)=O)N(C(=O)COc2ccc(Cl)cc2)C3)c1 (stereo not given in full),-19%,/,/,2%,7%,/,0%,/
ClC(Cl)(c1nnnn1-c1ccccc1)c1nnnn1-c1ccccc1,-11%,?,-0.5%,-98%,-46%,5%,?,-11%

# Exported with values under each structure: entries from further up.
# Each structure is followed by: StopGo reporter | MARV entry inh | Cruzain Triton | SARS PLP yeast | NS1 inh | Cruzain noTriton | RE007 growth inh | Lassa entry inh
COC(=O)c1ccccc1NC(=O)NN1CCN(C)CC1
→ -12% | / | / | 1% | 28% | / | 6% | /
CCOC(=O)c1[nH]c(C)c(CCC(=O)NCc2cccc(C)c2)c1C
→ -12% | / | 4.1% | / | / | -4% | / | 19%[46.1 µM]
CCCCN1C(=O)c2ccc(C(=O)Nc3ccc(C)c(S(=O)(=O)N(C)C)c3)cc2C1=O
→ 18µM* | ? | -8.1% | 10% | 8% | 12% | 13% | -28%

# Record cards (already shown). Order of screens: StopGo reporter | MARV entry inh | Cruzain Triton | SARS PLP yeast | NS1 inh | Cruzain noTriton | RE007 growth inh | Lassa entry inh
# ClC(Cl)(c1nnnn1-c1ccccc1)c1nnnn1-c1ccccc1 is listed with -11% | ? | -0.5% | -98% | -46% | 5% | ? | -11%
# Cc1nc(N)sc1C(=O)N/N=C/c1c[nH]c2ccccc12 is listed with / | 2.9µM* | -6.8% | -2% | 11% | 2% | -3% | 10%

# Next compounds
SMILES,StopGo reporter,MARV entry inh,Cruzain Triton,SARS PLP yeast,NS1 inh,Cruzain noTriton,RE007 growth inh,Lassa entry inh
O=C(NCc1ccc2c(c1)OCO2)c1cc(-c2ccncc2)nc2ccccc12,?,?,/,1%,-4%,/,3%,-17%
CC(=O)C1=C(O)C(=O)N(c2ccc(O)cc2)C1c1ccccc1[N+](=O)[O-] (stereo not given),12%,/,/,10%,?,/,7%,/
COc1ccc(Cl)cc1S(=O)(=O)N1CCC(C(=O)NC2CC2)CC1,-11%,-5%,/,4%,2%,/,20%,-1%
O=C(Sc1ccccc1)c1cccc(Cn2cc(C(F)(F)F)ccc2=O)c1,-12%,-27%&-27%[46.1 µM],/,0%,-6%,/,-3%,?
NC(=O)Cc1ccc2sc(-c3ccccc3)nc2c1,-20%,?,-7.9%,1%,14%,14%,-7%,?
COc1cccc(CC(NC(C)=O)C(=O)NC2CCN(C(=O)C3CC3)CC2)c1OC (stereo not given),2%,-5%,/,-1%,-1%,/,-6%,-1%
O=C(CN1CCCCCC1)Nc1nc2ccccc2s1,26%,4%[46.1 µM],/,/,/,/,-2%,28%[46.1 µM]
Cc1ccc(/C(O)=C2\C(=O)C(=O)N(CC(C)O)C2c2ccccn2)cc1 (stereo not given),-4%,?,/,-1%,-2%,/,3%,14%
C=CCOc1ccc(-c2nc3c(c(=O)[nH]c(=O)n3CCC)n2CCCC)cc1,-6%,1%[46.1 µM],/,-4%,3%,/,17%,?
O=C(Nc1ccc(Cl)cc1)c1ccc(-c2ccccn2)s1,36%[activator],?,/,1%,5%,/,0%,12%
Cn1cc(C(=O)N/N=C/c2cccc([N+](=O)[O-])c2)c2ccccc21,-5%,-3%[14.2 µM],/,-1%,0%,/,1%,-12%
CCOC(=O)c1c(NC(=O)CSc2nnc(C)s2)sc2c1CCC(CC)C2 (stereo not given),-23%,-27%,-13%,-33%,4%,?,15%,-2%
Cc1ccc(CNC(=O)N2CCN(c3ccc(C)cc3)CC2)cc1,5%,15%,/,6%,-6%,/,46%,?
Clc1ccc(C2NCCc3sccc32)cc1 (stereo not given),-10%,22%[46.1 µM],/,1%,5%,/,-8%,13%
COc1ccc(S(=O)(=O)N2CCN(C(=O)CCCN3C(=O)NC4(CCCC4)C3=O)CC2)cc1,-27%,0%,/,-1%,/,/,-6%,15%
CCN(CC)S(=O)(=O)c1ccc(OC)c(NC(=O)COc2ccc3c(C)cc(=O)oc3c2)c1,-15%,-1%,-5.2%,1%,-4%,0%,6%,15%
COc1ccc(NC(=O)C#Cc2ccccc2)cc1OC,12%,?,/,-8%,-48%,/,-29%,-9%[46.1 µM]
COc1ccc(CNC(=O)Cn2ccc3cc(S(=O)(=O)N4CCCCC4)ccc32)cc1OC,-2%,/,-5.9%,/,/,?,/,24%[46.1 µM]
